YopH PTP inh: inhibitors of Yersinia enterocolitica YopH tyrosine phosphatase. hit rate 0.16% among 140,000. inhibition, %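 (about 10 µM by stock and volumes)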. fluorescence Ex485/Em525;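 active means inhibition of 50% or more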;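 further: controls were vehicle for no effect and minimum signal wells for full effect; inactives centre near -20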
Arbovirus anti: antivirals against arbovirus infection; inhibition, % at 10 µM; arbovirus infection cell-based antiviral screen; hit rate 0.37% among 200,000;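 active means inhibition from about 30%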;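 further: bluetongue infection of BSR cells; cell survival read as ATP light after 72 h; 0% = infected wells without compound and 100% = uninfected wells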
RecA intein inh: Mtb RecA intein splicing inhibition. cell-free RecA intein splicing, fluorescence. inhibition, %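 (about 9 µM by stock and volumes)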. hit rate 0.75% among 290,000; in the data active means inhibition above about 30%; inconclusive means no clear call, values can overlap the other calls;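 further: 0% = vehicle wells and 100% = reference inhibitor control wells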
Target sequence (P9WHJ3 whole entry, looked up): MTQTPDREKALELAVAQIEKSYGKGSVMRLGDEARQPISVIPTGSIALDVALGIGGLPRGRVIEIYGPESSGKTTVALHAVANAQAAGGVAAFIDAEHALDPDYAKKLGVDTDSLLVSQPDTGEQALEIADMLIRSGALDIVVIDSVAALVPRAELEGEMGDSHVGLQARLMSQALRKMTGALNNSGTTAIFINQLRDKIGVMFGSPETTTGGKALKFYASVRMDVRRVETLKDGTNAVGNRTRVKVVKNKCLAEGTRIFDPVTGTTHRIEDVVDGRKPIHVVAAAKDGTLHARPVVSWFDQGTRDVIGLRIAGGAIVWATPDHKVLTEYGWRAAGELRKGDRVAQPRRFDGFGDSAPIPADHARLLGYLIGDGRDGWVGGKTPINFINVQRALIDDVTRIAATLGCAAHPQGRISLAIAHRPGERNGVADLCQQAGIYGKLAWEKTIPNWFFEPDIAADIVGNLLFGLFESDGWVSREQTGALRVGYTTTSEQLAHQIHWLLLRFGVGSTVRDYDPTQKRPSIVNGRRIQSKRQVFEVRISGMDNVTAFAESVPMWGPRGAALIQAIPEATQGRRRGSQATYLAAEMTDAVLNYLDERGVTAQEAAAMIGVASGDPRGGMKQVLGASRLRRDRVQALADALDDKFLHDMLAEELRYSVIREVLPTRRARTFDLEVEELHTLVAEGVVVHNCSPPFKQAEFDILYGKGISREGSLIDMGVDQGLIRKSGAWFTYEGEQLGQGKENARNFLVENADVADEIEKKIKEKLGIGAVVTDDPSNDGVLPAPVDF
Mtb growth: M. tuberculosis H37Rv growth inhibitors, H37Rv strain (AID 1626); M. tuberculosis H37Rv growth inhibition; higher % means a stronger effect; inhibition, % at 10 µM; hits with a dose series show IC50 in µM; hit rate 0.95% among 220,000;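 active means confirmed in a dose series; inconclusive means inhibition above 80% but not taken into the dose series; inactive means below 80% or under 30% at every dose of the series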;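 further: bacteria incubated seven days before Alamar blue readout; 0% = bacteria only wells and 100% = bacteria with antibiotic wells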
Mtb bLac sens: beta-lactam sensitization of Mtb H37Rv. hit rate 0.27% among 330,000. inhibition, % at 25 µM. AID 434955. M. tuberculosis H37Rv growth with meropenem, percent inhibition; hits of this screen are not shown here;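 active means about 74% or more and at least 40 points above the plate without the antibiotic, then above 30% in a dose series; inconclusive means first-round hits that could not be retested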;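 further: growth measured after seven days incubation then overnight dye step; 0% = bacteria only wells and 100% = bacteria with antibiotic; twin plates without the antibiotic show which effects depend on it; some results filed as inactive read as strong as hits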
Arbovirus anti repeat: also measured in Arbovirus anti; calls as there; inhibition, %; measured here: 10K subset replicate screen; many hits read low in the repeat;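 first of two repeat runs on a subset; 0% = infected and 100% = uninfected wells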
* = called active by the depositor; ? = inconclusive; . = no result given.

SMILES	YopH PTP inh	Arbovirus anti	RecA intein inh	Mtb growth	Mtb bLac sens	others
O=C(CCN1C(=O)C2CCCCC2C1=O)Nc1nc(-c2ccccc2)cs1 (centres undefined)	.	.	1.3	6%	0
O=C(N/N=C\c1ccc(Br)cc1)c1ccc(Cn2cccn2)o1	-24	0	-3.1	2%	-1
Cc1cc2c(=O)n(C)c(SCC(=O)Nc3ccccc3)nc2s1	.	.	-1.4	.	-1
Cc1ccc(S(=O)(=O)C(c2ccccc2)c2c(C)noc2C)cc1 (centres undefined)	-15	-1	3.5	0%	-1
Cc1nc2cc(-c3ccccc3)[nH]n2c(=O)c1C	.	.	-2.1	.	-10
COc1cc(C(=O)N/N=C/c2ccccn2)cc(OC)c1OC	.	-3	-1.4	-2%	0
Cn1c(Oc2ccccc2NCc2cccc(Br)c2)cc(=O)n(C)c1=O	-8	-7	8.8	1%	-8
CCCc1nnc(SCC(=O)Nc2ccc(C(=O)OCC)cc2)o1	.	.	5.5	.	100
CCn1c(=O)n(CC)c2cc(S(N)(=O)=O)ccc21	2	1	-4.2	85%	1
C1CCC(n2nnnc2CN2CCN(C3CCCC3)CC2)CC1	-1	-5	-1.1	0%	2
O=C(O)c1cc2nc(C3CC3)cc(C(F)(F)F)n2n1	-2	-3	-1.9	-2%	-2	Arbovirus anti repeat=-1
COc1ccccc1NC(=O)c1cc2ccccc2nc1C	.	4	-1.6	3%	-2
COCCn1c(SCC(=O)Nc2ccc(F)cc2F)nc2c([nH]c3ccccc32)c1=O	.	.	-0.2	.	-6
O=C(c1ccco1)N1CCN(C(=O)c2sccc2-c2ccccc2)CC1	2	-3	1.6	0%	-4	Arbovirus anti repeat=-2
O=C(O)c1ccccc1NS(=O)(=O)c1ccc2c3c(cccc13)C(=O)N2	-28	9	.	-8%	10
CCOC(=O)C(C)Sc1nc(=O)n2ccccc2n1 (centres undefined)	.	6	-1.6	0%	-11
COc1cc(OC)c(C(=O)O/N=C(\N)c2ccccc2)cc1OC	.	.	-0.2	.	7
CCOc1ccccc1N1CCN(C(=O)C2c3ccccc3Oc3ccccc32)CC1	-25	-29	-1.9	2%	-8
COc1ccc(OCc2cc(=O)[nH]c3ccccc23)cc1	.	.	1.6	.	0
CNS(=O)(=O)c1cccc(C(=O)OCc2cc(=O)n3cc(Br)ccc3n2)c1	-25	3	-1.8	0%	10
CS(=O)(=O)N1CCC(C(=O)N2CCN(c3ccccc3F)CC2)CC1	.	1	9.7	2%	-1
COC(=O)c1cccc(N2C(=O)c3ccccc3S2(=O)=O)c1	-38	-3	-1.3	-1%	1
Cc1cc(=O)oc2c3c(cc(OCC(=O)NCC4CCC(C(=O)O)CC4)c12)OC(C)(C)CC3 (centres undefined)	.	.	5.1	.	-5
CCN(CC)S(=O)(=O)c1ccc(N2CCN(C)CC2)c(NC(=O)CSCC(=O)Nc2cccc(C)c2)c1	.	.	-4.0	.	-13
CCCCCC(=O)N/N=C(\C)c1ccc(NC(=O)c2ccco2)cc1	-31	-9	-5.9	.	-7

(further entries)
SMILES	YopH PTP inh	Arbovirus anti	RecA intein inh	Mtb growth	Mtb bLac sens	others
CC1CN(S(=O)(=O)c2cccc(C(=O)NCCC3=CCCCC3)c2)CC(C)O1 (centres undefined)	.	.	0.3	.	-10
CC(C)OCCCNC(=O)C1CCC(=O)N1C(C)C (centres undefined)	-7	-8	2.5	-18%	-4
CCCCOC(=O)c1ccc(NC(=O)C(=O)NCCN(CC)CC)cc1	.	.	0.5	36µM*	92
CCc1ccccc1NC(=O)C1CCCN(S(=O)(=O)c2c(C)noc2C)C1 (centres undefined)	-22	-1	3.9	-8%	-10
Cc1[nH]c2ccccc2c1NC(=O)CN1CCN(c2cccc(C(F)(F)F)c2)CC1	-23	-20	.	8%	57
Cc1noc(C)c1S(=O)(=O)N1Cc2ccccc2CC1C(=O)N(C)C (centres undefined)	.	.	-1.3	.	?
S=C(NC1CC1)N1CCN(c2ccc(Cl)cc2)CC1	.	10	4.3	2%	0
Cc1ccc(-n2nnnc2SCC(=O)N2CCN(C(=O)c3ccco3)CC2)c(C)c1	9	7	0.6	-1%	-5
COC(=O)c1ccccc1NC(=O)CN(c1c(C)cccc1C)S(C)(=O)=O	.	.	0.4	.	-2
NS(=O)(=O)c1cccc(NC(=O)c2cc(-c3cccs3)nc3ccccc23)c1	.	.	.	-2%	-4
O=C(COC(=O)CC1c2ccccc2CCN1S(=O)(=O)c1ccccc1)Nc1ccccc1 (centres undefined)	-27	19	9.0	-2%	-4
O=C(Nc1ccccc1)N1CCN(c2ccc(C(F)(F)F)cn2)CC1	-26	-4	2.8	-6%	-3
NC1=C([N+](=O)[O-])C(c2ccc3c(c2)OCO3)C2=C(CCCC2=O)O1 (centres undefined)	.	.	-1.7	.	-4
Cn1cc(Br)c(C(=O)NNC(=O)c2cccc(Br)c2)n1	-42	4	-10	.	60
CSc1ccccc1NC(=O)CN(c1ccccc1)S(=O)(=O)N(C)C	-27	1	-0.5	7%	-3
O=C(COc1ccccc1Cl)Nc1cccnc1	.	7	-2.3	1%	5
Cc1cc(NCc2cccnc2)nc(N)n1	.	.	0.3	.	-5
COCCn1c(C)cc(C(=O)COC(=O)/C=C/c2c(C)nn(C3CCS(=O)(=O)C3)c2Cl)c1C (centres undefined)	.	.	-1.1	.	-7
COc1ccc(NC(=O)/C(=C\c2cc(OC)c(OC)cc2[N+](=O)[O-])NC(=O)c2ccccc2)cc1	-30	5	-1.0	-8%	-8
CCOC(=O)c1cnc(-n2nc(C)cc2C)nc1NNc1cc(C)nc(-c2ccccc2)n1	-38	-31	-3.5	?	92
CC(C)(CNC(=O)c1cccc(S(=O)(=O)NCc2ccccc2)c1)N1CCOCC1	.	.	0.7	.	-2
Cc1cccc(Cl)c1NC(=S)NN	.	.	-2.9	-2%	.
CC1CCN(c2nc(N3CCCCC3)nc(N3CCCCC3)n2)CC1	.	11	1.0	6%	0
CCn1nc(C)c(CNC(=O)CC2C(=O)NCCN2CC(C)C)c1C (centres undefined)	.	0	1.0	1%	1
COC(=O)CSCC(=O)Nc1nnc(-c2ccccc2C)s1	.	0	0.2	?	88

Five neighbouring records from above, quoted:
SMILES	YopH PTP inh	Arbovirus anti	RecA intein inh	Mtb growth	Mtb bLac sens	others
O=C(CCN1C(=O)C2CCCCC2C1=O)Nc1nc(-c2ccccc2)cs1 (centres undefined)	.	.	1.3	6%	0
O=C(N/N=C\c1ccc(Br)cc1)c1ccc(Cn2cccn2)o1	-24	0	-3.1	2%	-1
Cc1cc2c(=O)n(C)c(SCC(=O)Nc3ccccc3)nc2s1	.	.	-1.4	.	-1
Cc1ccc(S(=O)(=O)C(c2ccccc2)c2c(C)noc2C)cc1 (centres undefined)	-15	-1	3.5	0%	-1
Cc1nc2cc(-c3ccccc3)[nH]n2c(=O)c1C	.	.	-2.1	.	-10

More compounds.
SMILES	YopH PTP inh	Arbovirus anti	RecA intein inh	Mtb growth	Mtb bLac sens	others
COc1ccc(Cc2nnc(SCC(=O)N(C)c3ccccc3)o2)cc1	.	.	1.8	.	2
CCCn1c(/C=N/Nc2nc3ccccc3[nH]2)nc2ccccc21	-27	-30	.	75%	.
COc1ccc(C2c3sc(=O)[nH]c3SC3C4CCC(C4)C23)cc1OC (centres undefined)	-28	5	4.9	5%	-19
O=C(COc1ncnc2ccccc12)NC(=O)NCc1ccccc1	-10	2	-0.4	-10%	3
COc1cccc(NC(=O)C2CCCN(S(=O)(=O)c3ccc(-n4cnnn4)cc3)C2)c1 (centres undefined)	-31	-6	-0.4	-4%	3
CC1(C)NC(=O)N(CC(O)COC2CCCCC2)C1=O (centres undefined)	-8	1	0.1	.	-3
C#CCSc1n[nH]c(=O)n1-c1cccc(C(F)(F)F)c1	.	.	-6.8	2%	2
CC(=O)N/C(=C/c1ccc2c(c1)OCO2)C(=O)NCCO	-23	5	-1.6	-9%	-2
O=C(CCCN1C(=O)c2cccc3cccc(c23)C1=O)N1CCc2ccccc2C1	7	-15	2.8	-2%	-13
Cc1cccc2nc(CNc3ccc(F)cc3)cn12	-38	-1	-4.2	3%	-2
Clc1ccc2c(NCc3ccccc3)ccnc2c1	.	.	1.4	.	-9
CCOc1cc(C(=S)N2CCOCC2)ccc1OC(=O)c1ccc(C)cc1	.	.	9.4	.	-2
COc1ccnc(CS(=O)c2nc3cc(C(O)(F)F)ccc3[nH]2)c1OC (centres undefined)	.	.	-1.5	.	-4
CC(C)CN(C(=O)COC(=O)COc1ccc2ccccc2c1)c1c(N)n(Cc2ccccc2)c(=O)[nH]c1=O	.	.	-2.7	.	-1
CN(CCC#N)c1ncnc2scc(-c3ccccc3)c12	-43	0	2.0	-2%	4
CCOC(=O)CCCN1CC(O)=C(c2nc3ccccc3s2)C1=N	.	4	1.4	8%	7
CC(=O)/C(N=Nc1ccc2c(c1)OCO2)=C(\C)O	-12	-13	10	-2%	-5
CCOc1cccc2sc(N(CCCN(C)C)C(=O)c3ccc(S(=O)(=O)N(C)Cc4ccccc4)cc3)nc12	.	.	7.0	.	73
Cc1c(Cl)cc(-n2cnnn2)cc1[N+](=O)[O-]	.	10	-2.2	4%	4
Fc1ccccc1OCCSc1ncnc2nc[nH]c12	.	-36	-2.9	0%	1
COC(=O)COc1ccc(S(=O)(=O)Nc2ccc3c(c2)OCCO3)cc1Cl	-23	-1	1.4	-7%	7
Oc1cccc(O)c1O	.	.	.	1%	2
Cc1sc2ncn(CC(=O)N(CC(=O)NC3CCCC3)Cc3cccs3)c(=O)c2c1C	-20	-11	-5.0	11%	-5
O=C(Nc1ccn([C@H]2CC[C@@H](CO)O2)c(=O)n1)c1ccccc1	.	.	1.9	-12%	-4
CC(=O)N(C)c1ccc(NC(=S)Nc2cccc3ccccc23)cc1	-5	-13	9.8	11%	4

Next part; it opens with the two that closed the last part.
SMILES	YopH PTP inh	Arbovirus anti	RecA intein inh	Mtb growth	Mtb bLac sens	others
O=C(Nc1ccn([C@H]2CC[C@@H](CO)O2)c(=O)n1)c1ccccc1	.	.	1.9	-12%	-4
CC(=O)N(C)c1ccc(NC(=S)Nc2cccc3ccccc23)cc1	-5	-13	9.8	11%	4
Cc1ccc(C)c(NC(=S)N2CCN(c3cccc(C(F)(F)F)c3)CC2)c1	-47	5	0.6	0%	0
COc1ccc(-n2cc(CNC3CCN(C)CC3)c(-c3cccc(F)c3)n2)cc1	.	-31	0.3	11%	9
Cc1ccc(S(=O)(=O)/N=C(\CSC(N)=O)Nc2ccccc2)cc1	-29	11	-4.8	-5%	-8
O=C1CCCN1c1ccc(S(=O)(=O)N2CCCCC2)cc1	.	.	-1.1	.	1
Cc1ccc2c(C(=O)CN3CCN(C4CCCCC4)CC3)c(C)[nH]c2c1	12	-6	-1.4	2%	0
COC(=O)C(CC(C)C)NC(=O)c1cc(OC)c(OC)c(OC)c1 (centres undefined)	-49	7	-0.6	-8%	19
Cc1cccc(CN2CCC(C(=O)Nc3cccc(-c4cccc(F)c4)c3)CC2)n1	.	.	2.1	.	52
Cc1ccc(C(C(=O)NC(C)(C)C)N(CC2CCCO2)C(=O)CCC(=O)Nc2ccccn2)cc1 (centres undefined)	.	.	2.8	.	-5
CCOC(=O)N1CCN(C(=O)c2cc3sccc3n2C)CC1	-27	3	-2.8	-9%	11
CCCC(=O)Nc1ccc(-c2nc3ncccc3o2)cc1	.	.	-2.3	.	2
O=C(/C=C/c1c(Cl)nc2ccccn12)N1CCN(c2ccccc2F)CC1	.	1	-2.7	7%	2
Cc1c(C(=O)N/N=C/c2c(O)ccc3ccccc23)nnn1-c1nonc1N	.	.	-6.5	.	5
O=C(OCc1ccc(Br)cc1)c1cccnc1Cl	.	.	0.5	.	2
CN1CCN(Cc2cc3c(cc2[N+](=O)[O-])OCO3)CC1	.	.	-1.4	.	-4
O=C(CN=C1NC(=O)C(c2ccccc2)(c2ccccc2)N1)NCc1ccc(F)cc1	-7	-5	3.8	7%	-1
COc1ccc(Cc2nnc(NC(=O)CSc3ccccc3)s2)cc1	-30	8	1.2	2%	10
CCc1ccc(N2C(=O)CC(N3CCC(C(=O)OC)CC3)C2=O)cc1 (centres undefined)	1	-4	-1.4	6%	-2
CC1CCN(C(=O)COC(=O)c2n[nH]c3ccccc23)CC1	-34	2	1.1	-1%	-8
CC(C)(C)C(=O)[C@@H]1[C@@H]2C(=O)N(Cc3ccccc3)C(=O)[C@@H]2[C@H]2c3ccccc3C=CN12	9	-7	.	4%	.
Cc1ccccc1-c1nc(CS(=O)(=O)CC(=O)NC(C)c2ccccc2)c(C)o1 (centres undefined)	.	.	1.9	.	1
Cc1cn(-c2cc(NC(=O)c3ccc(C)c(NC(=O)c4cccc(-c5cn[nH]c(=O)c5)c4)c3)cc(C(F)(F)F)c2)cn1	.	.	8.0	.	-8
CCOC(=O)CCSc1nc(C(C)(C)C)cc(C(F)(F)F)c1C#N	-2	4	12	3%	79
O=C(COc1ccc2c3c(c(=O)oc2c1)CCC3)NCCCN1CCCC1=O	.	.	-2.7	.	0

These rows are one share of the data (hit frequency here may not be typical).
